MT1-MMP act inh = blocks activation of human MT1-MMP; hit rate 0.061% among 360,000; GFP/RFP ratio change, % at 20 µM; HT1080 RFP-PRO-GFP cells, GFP/RFP ratio fluorescence, overnight; percent of plate control window, DMSO zero; AID 651647;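 active means GFP/RFP ratio change of at least 30% with cell ATP level not reduced by more than half and red fluorescence within 50% of control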; further: strong numbers were not always called active
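Assay system: HT1080 cells carrying an RFP-PRO-GFP reporter | Dosing: Single dose of 20 µM compound, 1% DMSO final | Incubation: Cells overnight before dosing, compound overnight, 37 °C, 5% CO2 | Evaluation: GFP/RFP fluorescence ratio | Control set: DMSO and RFP-L50D-GFP cell wells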
Env fusion inh = inhibitors of HIV Env-mediated cell fusion | HeLa-JRFL Env/CEM21 cell fusion, luciferase | inhibition, % at 12.3 µM | AID 651610 | hit rate 1.1% among 360,000;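 active means mean replicate inhibition score of at least 50 and every replicate individually at or above 50; inconclusive means only one of the two criteria met; inactive means mean below 50 and not all replicates reaching 50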;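 further: 0% = plate neutral controls and 100% = maraviroc near 300 nM; one replicate is shown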
Rce1 inhib = inhibitors of yeast Ras-converting enzyme; Q03530; yeast membranes, quenched prenylated peptide cleavage fluorescence; calls only; hit rate 0.27% among 290,000; AID 2563;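 active means fall in fluorescence gain of 50% or more versus controls, with final raw signal at or below 3038400; inconclusive means same 50% fall but final raw signal above 3038400; inactive means fall in fluorescence gain under 50%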;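 further: plate controls were neutral control wells for no effect and wells lacking membranes for full effect; tested at 10 µM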
Target sequence (Q03530 whole entry, looked up): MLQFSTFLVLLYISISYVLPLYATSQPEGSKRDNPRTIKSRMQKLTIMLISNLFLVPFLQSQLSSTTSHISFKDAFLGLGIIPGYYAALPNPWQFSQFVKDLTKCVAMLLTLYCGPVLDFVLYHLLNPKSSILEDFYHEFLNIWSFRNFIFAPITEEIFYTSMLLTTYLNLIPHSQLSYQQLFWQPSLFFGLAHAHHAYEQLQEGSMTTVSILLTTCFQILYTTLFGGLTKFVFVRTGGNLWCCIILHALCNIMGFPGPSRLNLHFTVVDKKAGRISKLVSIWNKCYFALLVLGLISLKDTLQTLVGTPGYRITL
CSC inhib = cancer stem cell inhibition. cancer stem cell-like cells viability, luminescence. inhibition, % at 7.5 µM. hit rate 1.1% among 300,000. AID 2717;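 active means mean at 75% or more and at least half the replicates too; inconclusive means mean and replicates disagree; tested in HMLE shEcad cells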;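 further: 0% = median of negative and 100% = median of positive control wells; the first replicate is given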
PABP polyA inh = blocks human PABP binding to poly(A) RNA | fluorescence polarization | inhibition, % at 35 µM | hit rate 1% among 290,000 | AID 2014;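 active means 50% or more with normal probe brightness, or confirmed in later tests; inconclusive means above 50% with abnormal brightness, or retests that disagree; inactive means below 50% or failed in later tests; about a fifth of its hits are not listed in these tables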;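 further: calls also rest on retests at 20 µM and on dose response follow-up; controls were probe without protein and protein plus probe with vehicle; some compounds called inactive have numbers as strong as hits; many hits fall short of the cut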
Target sequence (P11940 whole entry, looked up): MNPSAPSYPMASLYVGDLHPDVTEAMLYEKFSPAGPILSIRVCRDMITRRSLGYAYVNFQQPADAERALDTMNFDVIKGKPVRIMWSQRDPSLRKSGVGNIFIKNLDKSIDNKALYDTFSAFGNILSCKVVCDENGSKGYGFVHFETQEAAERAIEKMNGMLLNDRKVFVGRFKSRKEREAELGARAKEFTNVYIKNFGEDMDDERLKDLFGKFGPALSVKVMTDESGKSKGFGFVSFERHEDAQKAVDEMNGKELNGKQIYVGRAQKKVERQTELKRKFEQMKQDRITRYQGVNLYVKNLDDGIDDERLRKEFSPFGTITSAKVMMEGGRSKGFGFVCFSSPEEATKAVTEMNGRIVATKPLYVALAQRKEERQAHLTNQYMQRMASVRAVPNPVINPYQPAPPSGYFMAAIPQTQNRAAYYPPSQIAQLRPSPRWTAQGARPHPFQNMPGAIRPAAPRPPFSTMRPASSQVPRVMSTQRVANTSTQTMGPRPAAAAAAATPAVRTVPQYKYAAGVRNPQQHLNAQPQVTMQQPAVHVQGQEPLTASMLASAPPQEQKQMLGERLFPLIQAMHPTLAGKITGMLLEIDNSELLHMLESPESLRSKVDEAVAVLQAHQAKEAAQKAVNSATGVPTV
UUG fidelity = yeast start codon fidelity modulation | S. cerevisiae UUG-firefly luciferase reporter, luminescence/redox ratio | activity score, % at 18.7 µM | hit rate 0.13% among 350,000;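 active means replicate mean at a twofold rise or more, about +100% in these data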;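 further: firefly luciferase made from a UUG start codon reports start codon fidelity; reporter light over untreated wells divided by growth signal over untreated wells; some hits fall short of that in this replicate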
eIF4H inh = inhibitors of RNA binding by human eIF4H; Q15056; eIF4H fluorescence polarization binding assay; inhibition, % at 35 µM; hit rate 0.94% among 290,000; AID 2012;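 active means 50% or more with normal probe brightness, or confirmed in later tests; inconclusive means above 50% with abnormal brightness, or retests that disagree; inactive means below 50% or failed in later tests; about a fifth of its hits are not listed in these tables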;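 further: calls also rest on retests at 20 µM and on dose response follow-up; 0% = protein and probe with vehicle and 100% = probe without protein; strong numbers were not always called active; many hits fall short of the cut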
MT1-MMP act inh RFP = recorded beside MT1-MMP act inh, whose call it bears; RFP signal change, %; measured here: RFP expression control read;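 0 = vehicle wells; hits needed this value within 50% of zero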
* hit, by the source's call; i = inactive; ? = inconclusive; · = not tested or not shown.

SMILES	MT1-MMP act inh	MT1-MMP act inh RFP	Env fusion inh	Rce1 inhib	CSC inhib	PABP polyA inh	UUG fidelity	eIF4H inh
O=C(Cc1ccc(-n2c(=O)[nH]c3ccsc3c2=O)cc1)NCc1cccnc1	0.6	4.9	19.2	i	-15.3	19.7	·	-1.7
COc1ccc(CC(=O)N2CCN(C(=O)c3ccco3)CC2)cc1	1.4	3.9	·	i	-7.3	-2.2	·	-1.2
O=C(OCC(=O)N1CCN(S(=O)(=O)c2ccccc2)CC1)C1CCC1	1.4	1.1	-22.2	·	-12.3	·	-7.5	·
O=C(CSc1nnc(-c2ccc3c(c2)OCO3)o1)Nc1c(F)cccc1F	-3.1	-2.4	·	·	-6.9	·	-13.3	·
Cc1cc(C)n2nc(SCC(=O)N3CCCC3)nc2n1	0.4	1.3	-14.7	·	-4.0	·	·	·
COc1cc(NC(=O)CN2C(=O)NC(c3ccccc3)(c3ccccc3)C2=O)cc(OC)c1	-0.1	-1.8	2.1	i	3.2	-0.4	-0.2	7.5
CC(=O)N1CCN(C(=O)c2ccc(Cl)c(S(=O)(=O)N3CCCCCC3)c2)CC1	-2.7	-1.0	4.9	·	-8.9	·	-3.3	·
CC(CN1CCOCC1)c1ccccc1 (stereo not drawn)	5.2	2.0	·	i	-0.6	4.4	·	3.9
CCC(C)N(C(=O)COC(=O)c1ccccc1SCC(=O)N1CCCC1)C1CCS(=O)(=O)C1 (stereo not drawn)	-2.0	-0.9	·	i	-6.8	-4.6	-8.1	-3.5
CC1(C)CC(=O)C(Sc2ccc(Br)cc2)=C(O)C1	-3.6	0.0	9.2	i	-13.8	-6.8	·	-1.0
COc1ccc(-c2nnc(SCC(=O)NC(C)c3ccccc3)o2)cc1 (stereo not drawn)	6.3	-1.3	-0.1	i	·	-2.4	-13.6	-5.8
O=[N+]([O-])c1cccc(-c2noc(-c3cccs3)n2)c1	3.0	-2.8	-302.3	i	-6.9	2.3	·	-1.9
CCc1ccc(NC(=O)CSc2nnc(CNC(=O)c3cccs3)o2)cc1	2.5	5.3	2.4	i	-10.0	14.7	-5.6	9.5
COc1cccc(NC(=O)Nc2cc(C(=O)O)ccc2C)c1	2.3	3.4	-1.5	i	-8.5	5.3	·	8.5
CC1(Cc2ccc(OC(F)(F)F)cc2)C(=O)Nc2c(Cl)ccc(Cl)c21 (stereo not drawn)	-10.1	-10.8	2.1	·	·	·	-6.8	·
CCC(C)(C)NC(=O)C(C)OC(=O)c1nsc(Cl)c1Cl (stereo not drawn)	-7.2	-3.2	-14.4	i	·	5.6	·	-12.9
Cc1ccc(OCC(=O)N/N=C/c2cc([N+](=O)[O-])ccc2N2CCCCC2)cc1	6.3	1.5	·	i	-7.4	-0.5	-20.4	5.7
Cc1nc(CS(=O)(=O)c2ccccn2)sc1C(=O)NNC(=O)c1ccccc1	4.1	4.8	0.4	i	-12.7	1.2	·	-1.9
CN(C)c1ccc(C(CNC(=O)c2ccccc2)c2c[nH]c3ccccc23)cc1 (stereo not drawn)	-4.7	-12.6	-24.1	i	-2.4	-6.7	·	-10.1
CCOc1ccccc1Cn1c(=O)oc2ccc(C)cc21	1.9	1.9	·	·	1.8	-5.9	-18.7	-8.7
CCc1nc2ccccc2c(C(=O)OCC(=O)Nc2ccc(S(=O)(=O)N3CCOCC3)cc2)c1C	-0.3	-7.5	·	i	4.9	3.6	-11.5	2.1
C=CCNc1oc(-c2cccc(Cl)c2)nc1C#N	4.1	1.9	5.1	·	4.4	·	0.2	·
CCOc1ccc(N(CC(=O)NC2CCCCCC2)S(=O)(=O)c2ccccc2)cc1	-3.4	-4.0	-8.3	i	0.5	4.1	-4.3	0.8
COc1cccc(/C=C(/C#N)c2ccc(F)cc2)c1OCc1cccc(C(=O)O)c1	0.7	0.3	·	i	-4.6	3.5	-5.1	18.5
CCSc1ccc([C@@H]2[C@@H]3C(=O)N(C)C(=O)[C@@H]3[C@]3(C(=O)OC)CCCCN23)cc1	2.3	0.0	15.0	i	4.5	·	-3.7	·
O=C1CC(=O)CC(c2ccco2)C1	-1.4	4.0	·	·	0.1	33.2	-5.3	44.0
Cc1nnc(SCC(=O)NNC(=O)c2ccccc2)n1-c1ccccc1	-6.6	3.3	-16.0	i	-8.3	-9.8	·	-5.4
Cc1ccc(NC(=O)CSc2ncc(S(=O)(=O)c3ccccc3)c(=O)[nH]2)cc1C	2.4	1.4	·	i	-7.1	-4.0	-11.5	8.5
COC(=O)[C@@]1(Cc2ccc(OC)cc2)[C@H]2c3cc(C(=O)N(C)C)[nH]c3C[C@H]2CN1C(=O)c1ccccc1	-0.4	-4.3	-65.9	i	·	-11.9	-4.9	-10.6
CC1CCC(C(=O)NC(C(=O)N2CCc3ccccc3C2)C(C)C)CC1 (stereo not drawn)	-6.1	-5.3	-2.1	i	-2.1	-12.8	-2.2	-1.6
CC(NC(=O)CCCc1ccccc1)c1ccncc1 (stereo not drawn)	1.7	4.7	3.0	i	·	-0.3	-17.3	3.6
CCCOc1cccc(-c2cc(C(=O)NN)c3ccccc3n2)c1	1.2	0.0	19.3	i	25.4	20.5	·	-8.7
O=C(O)c1cc(N/N=C/C=C/c2ccccc2[N+](=O)[O-])ccc1Cl	8.8	6.0	-43.7	i	3.1	23.9	-26.3	4.5
COc1ccc(NC(=O)Cn2nnc(C(=O)NCc3cccs3)c2N)c(OC)c1	3.1	-1.6	-1.8	i	2.7	8.3	-8.9	-11.9
CN(c1ccccc1)S(=O)(=O)c1cccc(C(=O)OCC(=O)NCc2ccc3c(c2)OCO3)c1	3.9	0.8	-10.5	i	-10.4	-4.7	·	6.2
CCOCCCNC(=O)CN1C(=O)/C(=C/c2ccccc2)Sc2ccccc21	-1.2	-4.1	2.9	i	-53.2	-12.8	·	2.4
COc1ccccc1NC(=S)NC(=O)/C=C/c1cccs1	4.0	2.7	-11.3	i	·	11.4	·	-5.3
Cc1cnn(-c2cc(N/N=C/c3ccc(F)cc3)ncn2)c1	-0.3	-3.3	·	i	-12.3	-5.8	-24.1	-4.9
C/C(Cn1cnc([N+](=O)[O-])n1)=N\NC(=O)c1ccc(F)cc1	1.7	5.4	-60.5	·	-12.1	5.5	-19.2	2.4
CSCCC(NC(=O)c1ccccc1Br)C(=O)N1CCC(C)CC1 (stereo not drawn)	-2.3	1.6	10.0	i	-13.2	10.0	-7.9	4.9
COc1ccc(Cl)cc1NC(=O)CN1C(=O)CCS(=O)(=O)c2ccccc21	2.7	0.6	·	i	·	-2.8	-6.6	-5.0
Cc1cccc(C)c1NC(=O)CN(C)C(=O)C1CCN(c2ncnc3sc(C)c(C)c23)CC1	0.0	-7.7	-34.6	i	-3.8	·	5.5	·
CC[C@]1(C(=O)OC)[C@H]2C(=O)N(Cc3ccccc3)C(=O)[C@H]2[C@H]2CN=C(SCc3ccc(C)cc3)N21	3.0	4.4	69.4*	·	·	·	-20.0	·
CN1CCN(C(=O)C2=C[C@H](c3ccc(Br)cc3)C[C@H](OCCCCO)O2)CC1	-1.3	3.2	7.0	i	-5.3	10.1	-4.3	3.0
CCCCOc1ccc(Cl)cc1Nc1nc(NCCO)nc(N2CCCC2)n1	3.8	-0.9	-10.3	i	-1.7	·	-9.3	·
CCSc1nnc(NC(=O)c2cc(-c3ccccc3O)n[nH]2)s1	-6.1	-0.8	-4.2	i	3.2	-1.2	-0.2	7.4
COC(=O)c1ccccc1NCCO	1.4	-2.5	-3.1	i	-9.1	0.2	-7.1	1.6
O=C(COC(=O)Cc1c(Cl)cccc1Cl)NCc1ccccc1	1.2	3.5	-5.9	·	·	·	-10.4	·
COc1ccc(C2=NN3C(=O)c4c(ccc(OC)c4OC)C3C2)cc1 (stereo not drawn)	-1.4	-2.4	·	i	2.5	-9.4	-0.8	-0.6
COc1cc2cc(CCOC(=O)c3ccco3)oc(=O)c2cc1OC	6.3	1.4	5.7	·	-11.4	·	-11.7	·
C/C(=N\NC(=O)c1nnn(-c2nonc2N)c1-c1ccccc1)c1ccccc1O	-3.2	-2.6	28.9	i	·	14.3	-22.1	16.2
C/C(CC(=O)Nc1c(C)cc(C)cc1C)=N\NC(=O)OC(C)(C)C	-8.1	-0.1	·	i	-7.0	8.4	·	6.6
Cc1ccc(CN2CC(C(=O)N(C)CC(=O)Nc3cccc(F)c3)CC2=O)cc1 (stereo not drawn)	-3.3	-2.5	14.4	i	-12.3	1.9	-11.6	4.3
CCCC(=O)Nc1ccc(C(=O)NCCc2ccc(F)cc2)cc1	2.3	1.6	-15.1	i	·	0.1	·	-9.8
O=C(Cc1ccc(NC(=O)C2CCN(C(=O)C3CCC3)CC2)cc1)Nc1ccc(C(=O)N2CCOCC2)cc1	2.5	5.3	-6.8	·	·	·	-12.4	·
CC1=CC2=NC(=O)/C(=C\c3ccc(-c4ccc(Cl)cc4)o3)C(=N)N2O1	·	·	3.8	·	·	2.3	·	33.3
COc1ccc(Oc2c(OC)cc(NCc3ccc(CN)cc3)c3ncccc23)cc1	-8.4	1.9	-5.7	·	·	·	-14.3	·
CC(=O)c1ccc(S(=O)(=O)N2CCC(NC(=O)c3ccccc3)CC2)cc1	1.7	-2.4	-1.1	i	-10.1	-2.9	-23.0	5.8
COc1ccc2nc(SCC(=O)Nc3ccc(S(=O)(=O)N4CCCC4)cc3)c(C#N)cc2c1	-42.1	-6.0	-11.6	i	7.7	-0.5	-0.3	4.2
CN(CC(=O)N1CCN(c2ccc(F)cc2)CC1)S(=O)(=O)c1ccc(F)cc1	1.5	0.0	·	i	-18.7	-6.9	·	-8.3

Full records from above.
Listed for CCCC(=O)Nc1ccc(C(=O)NCCc2ccc(F)cc2)cc1 : MT1-MMP act inh = 2.3; MT1-MMP act inh RFP = 1.6; Env fusion inh = -15.1; Rce1 inhib = i; CSC inhib = ·; PABP polyA inh = 0.1; UUG fidelity = ·; eIF4H inh = -9.8
Listed for Cc1ccc(CN2CC(C(=O)N(C)CC(=O)Nc3cccc(F)c3)CC2=O)cc1 (stereo not drawn) : MT1-MMP act inh = -3.3; MT1-MMP act inh RFP = -2.5; Env fusion inh = 14.4; Rce1 inhib = i; CSC inhib = -12.3; PABP polyA inh = 1.9; UUG fidelity = -11.6; eIF4H inh = 4.3
Listed for COc1ccc(C2=NN3C(=O)c4c(ccc(OC)c4OC)C3C2)cc1 (stereo not drawn) : MT1-MMP act inh = -1.4; MT1-MMP act inh RFP = -2.4; Env fusion inh = ·; Rce1 inhib = i; CSC inhib = 2.5; PABP polyA inh = -9.4; UUG fidelity = -0.8; eIF4H inh = -0.6

(list continues)
SMILES	MT1-MMP act inh	MT1-MMP act inh RFP	Env fusion inh	Rce1 inhib	CSC inhib	PABP polyA inh	UUG fidelity	eIF4H inh
COc1ccccc1-c1nnc(NC(=O)C(C)Sc2nncn2C)s1 (stereo not drawn)	-3.7	5.4	-15.7	i	-5.8	-2.2	·	0.7
CN(CC(=O)NCCC1=CCCCC1)S(=O)(=O)c1ccc2c(c1)c(=O)n(C)c(=O)n2C	-0.2	1.1	2.0	·	-4.1	-1.0	0.7	-3.8
CC(Oc1ccccc1)C(=O)Nc1oc(-c2ccco2)c(-c2ccco2)c1C#N (stereo not drawn)	·	·	-5.7	i	-5.4	-5.1	·	?
Cc1cc(NS(=O)(=O)c2ccc(NC(=O)CNS(=O)(=O)c3ccccc3)cc2)nc(C)n1	-2.2	5.8	7.0	·	12.9	·	-14.5	·

Screening results: PubChem, several laboratories
